NPYLR7 ag: activates Aedes aegypti NPYLR7 receptor. HEK293T NPYLR7/Galpha15, GCaMP6s calcium fluorescence. activation, % at 10 µM. 270,000 compounds, 0.15% hits; in the data active means activation above about 40%;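 further: 0% = vehicle and 100% = reference agonist at the receptor; some compounds past the cut are filed as inactive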
NPYLR7 ag max-min: recorded beside NPYLR7 ag, whose call it bears; activation, %; measured here: Max-Min RFU normalised activation; some inactives read as strong as hits;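 span of the calcium signal over five minutes; 0% = vehicle and 100% = native peptide agonist; compound fluorescence can raise it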
* marks the source's active call; other numbers are inactive results; & = joins results of further samples. Not all compounds are listed. The share of hits here may be higher or lower than overall.

mol | NPYLR7 ag | NPYLR7 ag max-min
CCOC1CC(NC(=O)c2cnc(-c3cnn(C)c3)s2)C12CCCC2 (stereo not drawn) | -14 | -13
CC(C)c1cc(=O)n2c(n1)SCC2CC(=O)Nc1ccon1 (stereo not drawn) | -2 | -1
CN(C)CCNC(=O)c1c(O)nc2sccn2c1=O | -2 | 1
COc1ccc(C2=NN(C(=O)CN3CCC4(CC3)OCCO4)C(c3ccco3)C2)cc1 (stereo not drawn) | -2 | 6
Cc1nc2ccccn2c(=O)c1NC(=O)NCc1ccccc1 | 0 | -2
COCCCNc1nc2nonc2nc1NC1CCC1 | -6 | -7
CC(C)CN1CC(OC(=O)NC2CCCCC2)CN(C(=O)c2cccs2)CC1=O (stereo not drawn) | -2 | 3
Cc1ccc(CNC(=O)CSc2ccc(-c3ccc(-n4ccnc4)cc3)nn2)cc1 | -5 | -9
O=C(NCC1CCN(Cc2cccnc2)C1)C1(C(F)(F)F)CC1 (stereo not drawn) | -3 | -3
CCn1c(CCNC2CCC3(CCNCC3)CC2)nc2ccccc21 | 18 | 13
CN(CC1CCCN1C)c1ccnc(C(=O)NCc2cccnc2)c1 (stereo not drawn) | 12 | 11
CC(C)(C)OC(=O)CSc1ncnc2sc3c(c12)CCCC3 | 6 | 5
COc1ccc(CCNC(=O)C2CCCN2c2nc(Cc3ccc(C)cc3)ns2)cc1OC (stereo not drawn) | -18 | -14
CC(=O)Nc1nc(SCC(=O)N2CCc3ccccc32)[nH]c(=O)c1NC(=O)c1ccc(F)cc1 | 6 | 4
CN1CCN(c2ncc(CNCCc3nnc4n3CCCCC4)cn2)CC1 | 21 | 15
CCCn1nccc1C(=O)N1CCCC2(CCN(C)C2)C1 (stereo not drawn) | 2 | 5
CN(Cc1ccccc1)C1(CNCc2ccccn2)Cc2ccccc2C1 | 6 | 2
CNc1nc2ccccc2n1/N=C\c1cccc(OC)c1OC | 12 | 8
O=C(c1ccc(F)c(F)c1)N1CCc2ccccc2C1c1ccc(Cl)cc1 (stereo not drawn) | 9 | 3
CCOc1ccc(NC(=O)CSc2nc(=O)n3cc(C)ccc3n2)cc1 | 4 | 2
CCn1ccc(C(=O)N(C)Cc2ccccc2C(F)(F)F)n1 | -8 | -12
O=C(N[C@@H]1c2ccccc2C[C@@H]1O)c1cccc2ccnn12 | -1 | -3
CCCCC1CC(C)(/C(C)=C\NC(N)=S)OC1=O (stereo not drawn) | 1 | 48
Cc1ccc(Cc2nc(N3CCN(C(=O)Cc4cccs4)CC3)c3c(-c4cccnc4)noc3n2)cc1 | 0 | 13
O=C(NCc1ccccc1F)c1ccc(-c2cc(-c3ccc(N4CCCCC4)cc3)n[nH]2)cc1 | 0 | 12
COc1ccc(OC)c(C2CCN(C(=O)c3cc(C4CC4)[nH]n3)C2)c1 (stereo not drawn) | 13 | 12
O=C1NC(N2CCOCC2)=N/C1=C\c1ccccc1 | -4 | -6
COc1ccc(NC(=O)c2sc(=O)n(Cc3cc(C(C)=O)ccc3OC)c2C)cc1 | 8 | 5
O=C(CN1CN(c2ccccc2)C2(CCN(C(=O)c3ccc(F)cc3)CC2)C1=O)NCc1ccco1 | 25 | 31
Cc1[nH]c2ccccc2c1CCNC(=O)c1cccs1 | 1 | -5
O=C(Cn1nnnc1CN1CCc2ccccc2C1)N1CCN(c2cnccn2)CC1 | 2 | -5
C=CC[C@H]1CC=C[C@H](CC=C)[N+]1(C)C | -2 | -6
Cc1ccccc1OCC(=O)N1CCOC(COc2cccc(C(F)(F)F)c2)C1 (stereo not drawn) | -5 | -8
O=c1c2cnc3nc(-c4ccc(Cl)cc4)nn3c2ccn1CCN1CCOCC1 | -1 | 4
CC(=O)N1CCCCC1CC(=O)Nc1c(F)cccc1N1CCCC1 (stereo not drawn) | 1 | -1
CCc1nc(COc2ccc(C(=O)Nc3cccc(C#N)c3)cc2)no1 | 4 | 2
CCC(C)NC(=O)c1ccc(COc2ccc3c(C)cc(=O)oc3c2)cc1 (stereo not drawn) | 7 | 11
CCOC(=O)C1=C(C)NC(=O)NC1C (stereo not drawn) | 0 | 9
CCCCn1cc(S(=O)(=O)c2ccc(OC)cc2)c(=O)c2cc(F)c(N3CCOCC3)cc21 | -8 | -12
Cn1nc(-c2cccnc2)c2c1NC(=O)CC2c1ccnn1-c1ccccc1 (stereo not drawn) | 3 | 2
Cc1c(Cl)cccc1-n1ccnc1S(=O)(=O)CC(N)=O | 7 | 5
N#CC1(c2ccccc2)CCN(C(=O)C2CC=CCC2C(=O)Nc2cccc3c2CCCC3)CC1 (stereo not drawn) | -7 | -11
c1ccc(CN2CCC(Cn3ccnc3C3CC3)C2)cc1 (stereo not drawn) | 30 | 18
Cc1cc(/C=C/C#N)cc(C)c1Nc1ccnc(Nc2ccc(C#N)cc2)n1 | -4 | -8
O=C(NCc1nc2c(cnn2-c2ccccc2)c(=O)[nH]1)C1CCCO1 (stereo not drawn) | -2 | -6
CN(Cc1cc(-c2ccccc2)no1)C(=O)c1cn2c(n1)CNCC2 | 33 | 32
C=C(C)Cn1c(C2CC(=O)N(c3ccccc3OC)C2)nc2ccccc21 (stereo not drawn) | 2 | 3
O=C(c1ccccc1N1CCOCC1)N1CCC(c2cccc(O)c2)CC1 | 15 | 11
CC(Sc1ccccc1Cl)C(=O)NCCC(=O)N1CCCCC1 (stereo not drawn) | 2 | 7
COc1cc(NS(=O)(=O)c2c(C)cc(C)cc2C)cc(OC)c1OC | 1 | 1
COc1ccc(NCN2C(=O)c3ccccc3C2=O)cc1 | -9&-2 | -11&-2
COc1ccc(CCOC(=O)C2CCCCN2C(=O)[C@@H](Cc2ccccc2)NC(=O)OCc2ccccc2)cc1OC (stereo partly drawn) | -7 | -12
CC(C)N(CCSc1ccc(NC(=O)c2cccs2)nn1)C(C)C | 12 | 3
COCCN(CC(=O)N(CCc1c[nH]c2ccccc12)Cc1ccc(OC)cc1)C(=O)Cc1ccc(F)cc1 | 1 | 23
Cc1noc(C)c1CN1CCN(C(=O)c2cnn(-c3ccccc3)n2)CC1 | -2 | -3
CCCCOc1ccc(C(=O)Nc2ccc3c(c2)N(CCC)C(=O)C(C)(C)CO3)cc1 | 17 | 14
COc1ccc(-c2nc(C)c(C(=O)NC3(C)CCS(=O)(=O)C3)s2)cc1OC (stereo not drawn) | 5 | 4
COCC1CCCN(Cc2ccc3c(c2)CN(C(=O)c2cccc(-c4ccc(F)cc4)c2)CCO3)C1 (stereo not drawn) | 5 | 0
COCCN(CC(=O)N(CCc1c[nH]c2ccccc12)Cc1ccc(OC)c(OC)c1)C(=O)c1ccc2c(c1)OCO2 | 19 | 28
CSc1cc(C(F)(F)F)c2c(c1C#N)CCCC2 | 16 | 18

Further records follow:
mol | NPYLR7 ag | NPYLR7 ag max-min
O=C(NCc1cccnc1)NC1(C(F)(F)F)Oc2ccccc2O1 | 6 | 2
CCOC(=O)[C@@H](N)Cc1ccc(O)c(O)c1 | -13 | -21
CCOC(=O)C1(C#N)C(C=Cc2ccccc2)C(OC)(OC)C1(OC)OC (stereo not drawn) | -7 | -6
O=C(/C=C/c1ccccn1)N1CCCC(N2CCN(Cc3ccc4c(c3)OCO4)CC2)C1 (stereo not drawn) | 3&-3 | 3&-3
O=c1c(-c2nc3ccccc3s2)coc2cc(O)ccc12 | 7 | 6
CC1CC(C)CN(S(=O)(=O)c2ccc(C(=O)NCC(c3cccs3)N(C)C)cc2)C1 (stereo not drawn) | -1 | -4
Cc1ccc(C(=O)Nc2ccc(CN3CCN(C)CC3)c(C(F)(F)F)c2)cc1C#Cc1cnc2cccnn12 | 1 | -7
COC(=O)C1=C(O)/C(=C\c2cccc(O)c2)SC1=Nc1cccc([N+](=O)[O-])c1 | -5 | -8
O=C(Nc1ccc(Oc2ccc(Cl)c3cccnc23)c(Cl)c1)c1ccccc1 | 5 | 4
Cc1cc(OCC2CN(C(=O)c3ccc(C#N)cc3F)CCO2)ccc1Cl (stereo not drawn) | 5 | 5
CS(=O)(=O)N1CCCC(C(=O)NCCc2nccn2Cc2ccccc2)C1 (stereo not drawn) | 9 | 6
CN1C(=O)COCc2c(-c3cc4ccccc4o3)cccc21 | 12 | 6
O=S(=O)(NCCc1nnc2ccc(SCc3ccccc3Cl)nn12)c1ccccc1 | -3 | -10
CCOC(=O)NNC(=S)NC | 9 | 5
Cn1c(=NN=C2CCC(C(C)(C)C)CC2)sc2ccccc21 (stereo not drawn) | 2 | 4
CN(CCOC(=O)Cc1cccs1)C1=NS(=O)(=O)c2ccccc21 | -2 | -4
Cc1ccc(CSc2ncnc3c2nnn3Cc2ccccc2)cc1 | 2 | 33
CC(=O)N1CCN(CC(=O)Nc2cc(C(F)(F)F)ccc2-n2cncn2)CC1 | 10 | 12
O=C(NC[C@@H]1CCNC[C@H]1O)c1ccc2c(c1)CCO2 | -4 | -12
CCCCOP(=O)(CC(=O)OC)CC(=O)OC | -8 | -14
COc1ccc(C(=O)NC2CCN(c3ccccc3C(=O)N3CCCC3)CC2)cc1 | 3 | 11
COC(=O)c1ccc(COc2coc(CN3CCc4ccccc4C3)cc2=O)o1 | 0 | -2
Cc1nc(C)c(Cc2ccccc2F)c(N2CCN(C(=O)C(C)(C)CCl)CC2)n1 | 18 | 28
O=C1OCCN1CCCN1CCC(=Cc2cc(Cl)ccc2Cl)CC1 | 2 | 466
COc1ccc(N2C(=O)C3C(Cc4c[nH]c5ccccc45)NC4(C(=O)Nc5ccccc54)C3C2=O)cc1 (stereo not drawn) | -1 | -1
Cc1cc(CN(Cc2ccco2)C(C)C(C)C)n[nH]1 (stereo not drawn) | -5 | -12
O=c1[nH]c2ccccc2n1CCCSCCOc1ccccc1 | 14 | 6
Cc1ccc(N2CC(NC(=O)Nc3cc(C)on3)CC2=O)cc1 (stereo not drawn) | 13 | 12
CCn1c(N)c(N(C)Cc2coc(-c3ccc(F)cc3)n2)c(=O)[nH]c1=O | -2 | -7
Cc1noc(C)c1CN1CCOc2c(O)cc(-c3cccc(Cl)c3)cc2C1 | 5 | 5
CC(C)Oc1ccc(C(O)=C2C(=O)C(=O)N(CCN3CCOCC3)C2c2ccccc2F)cc1 (stereo not drawn) | 13 | 13
Cc1cccc(CNC(=O)c2cc3ccccc3c(=O)[nH]2)c1 | 9 | 5
CCC(=O)OC(C#N)C1=C(Cl)C(=O)c2ccccc2C1=O (stereo not drawn) | -4 | -5
COc1ccc(C(NC(=O)C2CCN(CCOc3ccccc3OC)CC2)c2ccccc2C)cn1 (stereo not drawn) | 5 | -3
COc1cc(NS(=O)(=O)CCOC(C)C)cc(OC)c1OC | -2 | -5
Cc1cc2oc(NC(=O)CCCS(C)(=O)=O)nc2c(C)c1Cl | 0 | -2
CCNC(=O)Cn1c(CO)cnc1SCc1ccc(C(F)(F)F)cc1 | 15 | 14
CCOc1ccc(-c2ccnc(N3CCN(C(=O)c4ccccc4OC)CC3)n2)cc1 | 1 | 14
CCNc1ncc(C(=O)N2CCCCC2CN2CCOCC2)cn1 (stereo not drawn) | -4 | -5
CCC(O)CN1CCN(C(=O)C2(C(=O)NC)CCC2)CC1 (stereo not drawn) | 10 | 5
CCc1nc2ccc(C(=O)NCCOc3ccc(OC)cc3)cn2c1N(CC)C(C)=O | -4 | -8
CCS(=O)(=O)c1ncc(CN(C)Cc2cccc3ncccc23)n1Cc1ccccc1 | 11 | 1
CC(C)NC(=O)C1(C)CCCCCN1C/C=C/c1ccccc1 (stereo not drawn) | 0 | -1
CCC(C)NC(=O)Cn1c(=O)n(-c2cccc(C(F)(F)F)c2)c(=O)c2ccccc21 (stereo not drawn) | 29 | 30
Cc1nc(-c2ccccc2Cl)nc(N2CCC(N(C)CC(F)F)CC2)c1C | 2 | -1
Cc1noc(C)c1CN(C)Cc1ccccc1C(=O)O | -2 | -3
CCOc1ccc2nc(S(=O)(=O)NC(=O)C3(C)CCN3C(=O)Cc3ccsc3)sc2c1 (stereo not drawn) | 2 | 1
COc1cc(/C=C2/COc3c(Cl)cc(Cl)cc3C2=O)cc(OC)c1O | -4 | -4
COc1ccccc1-n1nnc(C(=O)Nc2ccccc2C#N)c1C | -4 | -11
CCc1nc2n(n1)C(=O)C(C(c1ccc(F)cc1)N1CCOCC1)S2 (stereo not drawn) | -3 | -7
O=C(OCc1cc(=O)n2cc(Br)ccc2n1)c1csc2c1CCCC2 | 0 | -3

High-throughput results (PubChem)
